PABP FP inh – blocks human PABP binding to poly(A) RNA; fluorescence polarization; inhibition, % at 35 µM; 1% of 290,000 active;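 active = 50% or more with normal probe brightness, or confirmed in later tests; inconclusive = above 50% with abnormal brightness, or retests that disagree; inactive = below 50% or failed in later tests; about a fifth of its hits are not listed in these tables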;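 also: calls also rest on retests at 20 µM and on dose response follow-up; controls were probe without protein and protein plus probe with vehicle; some compounds called inactive have numbers as strong as hits; many hits fall short of the cut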
CSC inhib – blocks cancer stem cells | inhibition, % at 7.5 µM | cancer stem cell-like cells viability, luminescence | 1.1% of 300,000 active | AID 2717;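 active = mean at 75% or more and at least half the replicates too; inconclusive = mean and replicates disagree; tested in HMLE shEcad cells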;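 also: 0% = median of negative and 100% = median of positive control wells; the first replicate is given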
Yeast UUG start – alters start codon recognition fidelity in yeast | S. cerevisiae UUG-firefly luciferase reporter, luminescence/redox ratio | activity score, % at 18.7 µM | 0.13% of 350,000 active | AID 602363;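 active = replicate mean at a twofold rise or more, about +100% in these data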;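 also: firefly luciferase made from a UUG start codon reports start codon fidelity; reporter light over untreated wells divided by growth signal over untreated wells; some hits fall short of that in this replicate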
MT1-MMP act inh – blocks activation of human MT1-MMP. HT1080 RFP-PRO-GFP cells, GFP/RFP ratio fluorescence, overnight; percent of plate control window, DMSO zero. GFP/RFP ratio change, % at 20 µM. 0.061% of 360,000 active;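 active = GFP/RFP ratio change of at least 30% with cell ATP level not reduced by more than half and red fluorescence within 50% of control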; also: strong numbers were not always called active
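Test system: HT1080 cells expressing an RFP-PRO-GFP fluorescent reporter construct / Compound dosing: single-point 20 µM compound, 1% DMSO / Schedule: cells overnight before dosing, compound overnight, 37 °C, 5% CO2 / Evaluation: GFP/RFP fluorescence ratio / Control set: DMSO and RFP-L50D-GFP cell wells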
HIV Env fusion – blocks HIV Env-driven cell-cell fusion; HeLa-JRFL Env/CEM21 cell fusion, luciferase; inhibition, % at 12.3 µM; 1.1% of 360,000 active;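 active = mean replicate inhibition score of at least 50 and every replicate individually at or above 50; inconclusive = only one of the two criteria met; inactive = mean below 50 and not all replicates reaching 50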;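 also: 0% = plate neutral controls and 100% = maraviroc near 300 nM; one replicate is shown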
eIF4H FP inh – inhibitors of RNA binding by human eIF4H; Q15056; eIF4H fluorescence polarization binding assay; inhibition, % at 35 µM; 0.94% of 290,000 active; AID 2012;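 active = 50% or more with normal probe brightness, or confirmed in later tests; inconclusive = above 50% with abnormal brightness, or retests that disagree; inactive = below 50% or failed in later tests; about a fifth of its hits are not listed in these tables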;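 also: calls also rest on retests at 20 µM and on dose response follow-up; 0% = protein and probe with vehicle and 100% = probe without protein; strong numbers were not always called active; many hits fall short of the cut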
Rce1 inh – inhibitors of yeast Ras-converting enzyme; Q03530; calls only; 0.27% of 290,000 active; yeast membranes, quenched prenylated peptide cleavage fluorescence; AID 2563;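 active = fall in fluorescence gain of 50% or more versus controls, with final raw signal at or below 3038400; inconclusive = same 50% fall but final raw signal above 3038400; inactive = fall in fluorescence gain under 50%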;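 also: plate controls were neutral control wells for no effect and wells lacking membranes for full effect; tested at 10 µM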
Target sequence (Q03530 whole entry, looked up): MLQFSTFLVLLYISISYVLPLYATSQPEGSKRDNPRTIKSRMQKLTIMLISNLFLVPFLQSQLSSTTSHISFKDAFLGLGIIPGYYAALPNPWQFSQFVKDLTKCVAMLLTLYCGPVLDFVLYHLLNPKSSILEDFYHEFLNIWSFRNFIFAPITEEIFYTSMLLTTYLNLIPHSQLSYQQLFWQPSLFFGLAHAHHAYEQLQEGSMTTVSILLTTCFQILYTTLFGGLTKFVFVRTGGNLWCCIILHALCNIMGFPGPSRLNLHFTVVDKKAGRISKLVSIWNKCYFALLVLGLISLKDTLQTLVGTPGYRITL
eIF4H FP inh retest – further read-out of eIF4H FP inh, marked with its call; inhibition, %; compound at 20 µM; confirmation average;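 mean of two retest wells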
PABP FP inh retest – recorded beside PABP FP inh, whose call it bears; inhibition, %; compound at 20 µM; confirmation repeats;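 mean of two retest wells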
MT1-MMP act inh RFP – second read-out of MT1-MMP act inh, no call of its own (marks repeat the call); RFP signal change, %; measured here: RFP expression control read;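 0 = vehicle wells; hits needed this value within 50% of zero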
* hit, by the source's call; i = inactive; ? = inconclusive; nt = not tested or not shown.

SMILES	PABP FP inh	CSC inhib	Yeast UUG start	MT1-MMP act inh	MT1-MMP act inh RFP	HIV Env fusion	eIF4H FP inh	Rce1 inh	others
CC1CCN(c2nc3c(c(=O)[nH]c(=O)n3C)n2CC(C)CSc2nnnn2-c2ccccc2)CC1 (stereo unspecified)	69.0*	-18.4	21.1	-1.6	-4.4	-19.7	5.3	i	eIF4H FP inh retest=0.4;PABP FP inh retest=60.2*
COC/C=C/C1=CC2=CC(=O)C(C)(OC(=O)c3cnc4ccccc4n3)C(=O)C2=CN1Cc1ccccc1 (stereo unspecified)	38.8	12.9	-10.6	2.4	1.7	-18.7	59.0*	i	eIF4H FP inh retest=74.3*;PABP FP inh retest=44.8
Cc1cccn2c(=O)c(/C=C(\C#N)S(=O)(=O)c3ccccc3)c(N3CCCCC3)nc12	?	-9.8	-11.5	-1.9	1.1	19.2	?	i
Cc1nc2nc3c(c(=O)n2[nH]1)CCCC3	5.2	-1.0	-11.0	4.9	2.3	nt	4.7	i
COc1cc(NS(=O)(=O)c2csc(C(N)=O)c2)cc(OC)c1	0.3	-9.8	-22.1	-1.2	-2.9	23.0	3.0	i
O=c1[nH]c(CN2CCN(c3ccc(F)cc3)CC2)nc2ccccc12	-8.5	-11.8	-3.1	-2.2	2.2	nt	-10.1	i
CC12CCC(=O)N1C(C(=O)Nc1cccc(F)c1)CS2 (stereo unspecified)	4.4	-7.6	-13.1	5.8	1.7	-1.3	-16.3	i
CCOC(=O)C(C#N)(Cc1ccc2ccccc2n1)Cc1ccc2ccccc2n1	nt	nt	-1.9	-1.1	-11.5	-24.3	nt	nt
COC(=O)[C@H](Cc1ccccc1)N(Cc1ccccc1)S(=O)(=O)N(Cc1ccccc1)[C@@H](Cc1ccccc1)C(=O)OC	nt	-1.4	-14.0	-6.1	-25.7	79.8*	nt	nt
O=C(Nc1cc(NC(=O)c2ccccc2F)ccc1Cl)c1ccccc1	-0.7	1.8	5.4	6.7	4.8	-6.6	-7.5	i
FC(F)(F)c1cccc(-c2cc(C3CCNCC3)[nH]n2)c1	2.1	nt	-5.9	-0.8	-0.5	17.9	5.1	i
CC1CCC2(CC1)NC(CO)(CO)CO2 (stereo unspecified)	-7.9	-10.7	-3.7	0.6	1.5	-39.9	-3.1	i
CC(C)C1CC(c2csc(N)n2)CCO1 (stereo unspecified)	27.2	1.4	6.4	0.0	-1.8	nt	-0.9	i
C=C(C)C1Cc2c(C)nn(-c3cccc4ccccc34)c2C1 (stereo unspecified)	1.8	95.6*	-12.3	-5.7	-15.6	nt	-3.1	nt
O=C(Nc1ccccc1Cl)C1CCN(S(=O)(=O)c2cccc3nonc23)CC1	9.0	-0.5	-7.3	1.0	-2.6	2.4	0.4	i
N#Cc1ccc(COC(=O)c2cnc3ccccc3n2)cc1	9.6	-11.1	-23.1	2.9	7.7	3.0	-1.4	i
COc1ccc(N(CC(=O)N2CCCCC2)S(=O)(=O)c2c(C)nn(C)c2C)cc1	-4.3	9.8	-4.1	16.4	6.7	-0.8	6.6	i
Nc1nc(-c2ccccc2)nc2nonc12	nt	nt	-16.9	0.3	7.5	1.0	nt	nt
CCOC(=O)c1cccc(NC(=O)CSc2nnc(COc3ccccc3C)o2)c1	-5.1	8.1	-6.5	6.4	2.8	-13.6	-5.9	i
O=C(Nc1ccccc1)c1nc[nH]c1C(=O)NCCCCCCNC(=O)c1[nH]cnc1C(=O)Nc1ccccc1	nt	nt	0.0	1.7	-11.9	57.5*	nt	nt

Next part; it opens with the three that closed the last part.
SMILES	PABP FP inh	CSC inhib	Yeast UUG start	MT1-MMP act inh	MT1-MMP act inh RFP	HIV Env fusion	eIF4H FP inh	Rce1 inh	others
Nc1nc(-c2ccccc2)nc2nonc12	nt	nt	-16.9	0.3	7.5	1.0	nt	nt
CCOC(=O)c1cccc(NC(=O)CSc2nnc(COc3ccccc3C)o2)c1	-5.1	8.1	-6.5	6.4	2.8	-13.6	-5.9	i
O=C(Nc1ccccc1)c1nc[nH]c1C(=O)NCCCCCCNC(=O)c1[nH]cnc1C(=O)Nc1ccccc1	nt	nt	0.0	1.7	-11.9	57.5*	nt	nt
COc1ccc(CN(C)CC(=O)Nc2ccc(Cl)cc2C(F)(F)F)c(OC)c1	-1.7	10.5	nt	-1.3	0.2	nt	-3.6	i
CC(=O)Nc1ccc(S(=O)(=O)Oc2cccc(N3C(=O)C4CC=CCC4C3=O)c2)cc1 (stereo unspecified)	5.1	3.9	nt	-0.6	-6.7	10.9	-5.9	i
COCCCn1c(C(=O)NC2CCCCC2)cc2c(=O)n3cccc(C)c3nc21	nt	nt	8.4	-0.5	-6.1	17.1	nt	nt
Cn1c(=O)oc2cc(S(=O)(=O)N3CCN(c4ccccn4)CC3)ccc21	2.5	20.4	-18.6	-2.5	-2.6	26.8	-5.8	i
Cc1c(NC(=O)C(C)OC(=O)c2cc3c4ccccc4n(C)c3s2)c(=O)n(-c2ccccc2)n1C (stereo unspecified)	12.8	4.0	10.5	7.5	4.9	24.9	-5.5	i
CCOCc1cc(=O)[nH]c(SC)n1	0.1	nt	-18.3	-2.8	-0.9	-1.8	8.9	i
COc1ccc(-n2c(-c3ccc(Cl)cc3Cl)n[nH]c2=S)c(OC)c1	-8.9	-5.1	-5.6	-5.9	-4.2	-24.7	3.0	i
Cc1cc2nccc(-c3ccco3)n2n1	-7.9	-14.1	nt	-3.4	-3.0	nt	-2.5	i
Cc1cc(C(=O)CCl)c(C)n1CCc1ccc(Cl)cc1	-3.9	116.0*	-0.9	-12.5	-0.6	-53.1	-8.3	i
COc1ccc(OC)c(NC(=O)C2COc3ccccc3O2)c1 (stereo unspecified)	-9.5	-21.5	-7.2	-1.2	-0.7	nt	0.2	i
Cc1cc(C)c(S(=O)(=O)N(C)CC(=O)NC2CCCC2)c(C)c1	10.3	-11.9	-20.3	6.0	5.3	27.1	-4.4	i
CCC(C)[C@H](N)c1cn([C@@H](Cc2cc3ccccc3[nH]2)C(=O)N2CCNCC2)nn1 (stereo partly specified)	24.2	3.5	-3.5	2.6	1.8	-2.5	13.2	i
Cc1ccc(-c2nnc(Cc3ccc([N+](=O)[O-])cc3)o2)cc1	-12.8	-5.0	-12.3	3.3	1.7	-59.9	0.0	i
O=C(CCn1nnc2ccccc21)OCC(=O)c1ccc(F)cc1	6.2	0.9	nt	0.8	6.7	8.8	-3.3	i
COc1ccc(/C=C/c2c(-c3ccc(OC)cc3)sc3cc(OC)c(OC)cc23)cc1	nt	nt	-19.9	0.9	0.9	-10.8	nt	nt
COc1cccc(C(=O)NCCN2CCN(c3ccccc3)CC2)c1	5.5	7.8	-14.8	-0.6	-1.1	-14.5	6.3	i
NC(=O)CN1C(=O)C(=O)N(Cc2ccc(Cl)cc2)C1=O	-5.5	1.6	nt	-2.0	-1.4	12.3	-7.1	i
CCCCCC(=O)Nc1nc(C)c(-c2csc(Nc3cc(Cl)ccc3C)n2)s1	-1.9	-0.9	-8.1	3.4	0.7	-8.2	8.4	i
C/C(=N\NC(=O)c1ccc(-c2ccccc2)cc1)c1ccco1	-1.9	nt	-17.7	4.6	3.5	-17.0	-10.9	i
CCOC(=O)CC(NS(=O)(=O)c1ccc2[nH]cc(C(=O)O)c(=O)c2c1)c1ccc(OCC)c(OC)c1 (stereo unspecified)	41.1*	7.2	-4.7	0.7	1.7	0.7	78.7*	i	eIF4H FP inh retest=102.6*;PABP FP inh retest=82.9*
CC(C)NC(=O)C12CC3CC(C1)CC(C(=O)NC(C)C)(C3)C2	3.5	2.5	-11.5	2.2	8.8	-25.9	-5.3	i
O=c1[nH][nH]c(-c2ccccc2)c1C=Nc1cccc(Cl)c1	-4.1	-12.6	-2.5	2.8	1.4	-331.7	-2.6	i
CCCNC(=O)N1CCC(c2ccc3c(c2)OCO3)CC1	7.9	0.3	10.3	1.0	-2.5	-14.7	0.9	i
N#C/C(=C(/O)COC(=O)c1ccc2c(c1)OCCO2)c1nc2ccccc2[nH]1	19.2	14.9	-11.0	-7.7	6.3	-39.1	14.3	i
Fc1ccc(-n2cc(CNCCc3cccnc3)c(-c3ccccc3Cl)n2)cc1	-1.1	-4.7	nt	-2.7	-0.4	?	1.5	i
CCOc1ccccc1CNCc1ccc(C(=O)O)cc1	-0.5	-8.4	nt	7.5	5.2	-0.9	-12.0	i
Cc1ccc(N(Cc2cc3ccc(C)cc3[nH]c2=O)C(=O)c2ccco2)c(C)c1	0.4	-7.3	-4.7	1.3	-3.4	4.9	0.2	i
Cc1ccc(CNS(=O)(=O)c2c(C(=O)N3CCCCC3)c(C)n(C)c2C)o1	9.2	-7.6	47.5	2.6	4.5	2.2	-5.0	i
O=C(CSc1nnc2ccccn12)N1CCOCC1	2.0	-14.5	nt	1.2	4.4	nt	-5.0	i
CCn1ncc([N+](=O)[O-])c1C(=O)Nc1cc(C)on1	-13.6	7.6	nt	-1.0	1.4	3.4	-11.3	i

Among those listed so far, 3 have a thiophene ring, fused or not.
SMILES	PABP FP inh	CSC inhib	Yeast UUG start	MT1-MMP act inh	MT1-MMP act inh RFP	HIV Env fusion	eIF4H FP inh	Rce1 inh	others
COc1cc(NS(=O)(=O)c2csc(C(N)=O)c2)cc(OC)c1	0.3	-9.8	-22.1	-1.2	-2.9	23.0	3.0	i
Cc1c(NC(=O)C(C)OC(=O)c2cc3c4ccccc4n(C)c3s2)c(=O)n(-c2ccccc2)n1C (stereo unspecified)	12.8	4.0	10.5	7.5	4.9	24.9	-5.5	i
COc1ccc(/C=C/c2c(-c3ccc(OC)cc3)sc3cc(OC)c(OC)cc23)cc1	nt	nt	-19.9	0.9	0.9	-10.8	nt	nt

Carrying on:
SMILES	PABP FP inh	CSC inhib	Yeast UUG start	MT1-MMP act inh	MT1-MMP act inh RFP	HIV Env fusion	eIF4H FP inh	Rce1 inh	others
C#CCSc1nsc(SCC#C)c1C#N	0.9	3.2	-2.8	-5.2	-5.0	nt	0.7	i
COCCN(C(=O)C1CCC1)c1c(N)n(CC(C)C)c(=O)[nH]c1=O	nt	7.0	-19.4	-2.2	3.2	nt	nt	nt
COc1ccc(Cc2nnc(NC(=O)c3ccccc3F)s2)cc1OC	?	-14.5	-13.2	-0.3	-3.6	-37.8	?	i
CC(C)(C)NC(=O)c1cc(NC(=O)c2ccco2)cc(NC(=O)c2ccco2)c1	-6.7	-1.4	-23.8	-0.1	-5.2	-18.6	-2.3	i
COc1ccc(S(=O)(=O)N2CCn3c2nc2ccccc23)cc1	-0.3	-5.2	-12.2	0.6	-2.8	nt	-9.5	i
COc1ccc(CCNC(=O)CCc2nnc(Cc3ccc4c(c3)OCO4)o2)cc1	3.3	1.2	-9.2	1.8	3.9	5.1	6.7	nt
Cc1noc(C)c1C(=O)N(C)CC(=O)Nc1ccc(F)c(F)c1F	nt	-4.2	-7.1	-9.1	0.7	-12.9	nt	i
O=C(Nc1ccccc1)c1cc(C2CCCN(C(=O)CCc3ccccc3)C2)on1 (stereo unspecified)	nt	nt	-1.9	1.3	1.6	-32.3	nt	nt
CCN1C(=O)C(CC(=O)Nc2ccc(OC)cc2)N(Cc2ccc(OC)c(OC)c2)C1=S (stereo unspecified)	-0.5	-0.9	-13.7	-1.6	0.6	36.1	-4.0	i
COc1ccccc1NS(=O)(=O)c1cc(C(=O)NCC(c2cccs2)N2CCOCC2)ccc1C (stereo unspecified)	nt	-15.6	-9.6	5.3	-0.8	-24.6	nt	i

From PubChem BioAssay

This is a random part of the collection; 2.9% or so of the library scored in one or more.
